rRNA inh HTS = inhibits bacterial ribosomal RNA function over humanized ribosomes; AID 720706; GFP signal change (wild-type ribosome), % (no concentration beside the values); 350,000 compounds, 1.6% hits; E. coli WT GFP vs humanized-ribosome RFP mutants, fluorescence, 24 h; hits give low values; DMSO median 0, no signal -100;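 active = significant combined selectivity score with lowered wild-type GFP, culture density cut under 30%, mutant RFP and density less affected; inactive = any of these conditions unmet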; also: one replicate is shown; some compounds called inactive have numbers as strong as hits
Ecoli growth = inhibitors of Escherichia coli growth. OD600, 23 h; hits give low values. OD600 absorbance (concentration not given with the values). 330,000 compounds, 0.21% hits. AID 1053175;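 active = OD600 absorbance below the run mean of sample wells minus 3.6 SD, in any replicate, cut at about 0.56 in these data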;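 also: stock transfer was 300 nL into about 60 µL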
HNF4A DNA FP = change in binding of human HNF4 alpha to DNA | P41235 | HNF4a-FITC DNA binding, fluorescence polarization, 1 h | activity change, % at 10 µM | 360,000 compounds, 0.3% hits; in the data active = activity change above about 30%, passing the limit was not always enough;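 also: controls were the assay level and a saturating level of protein; the project sought stronger binding though the title names inhibitors; some compounds called inactive have numbers as strong as hits; positive values seem to mean higher polarization but the record does not say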
B2AR ag = activates human beta-2 adrenergic receptor causing internalization. P07550. Am2.2-beta2AR cells, FAP receptor internalization, flow cytometry; reference of the scale not given here. response, % (concentration not given with the values). 340,000 compounds, 0.43% hits;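 active = response above a set limit, near 3 SD of response in nonfluorescent compounds, cut at about 42% in these data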;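 also: stock transfer was 100 nL into about 11 µL; a reference agonist was the positive control; negative values mostly stem from fluorescent compounds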
UCH37 inh = human UCH37 deubiquitinating enzyme inhibition; Q9Y5K5; purified proteasome/UCH37, Ub-AMC cleavage fluorescence; inhibition, % (test concentration not listed); 330,000 compounds, 0.33% hits; AID 588478;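 active = mean of two replicates above 20%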;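 also: 0% = compound-free wells with enzyme and 100% = wells lacking proteasome; stock transfer was 100 nL into about 20 µL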
Target sequence (Q9Y5K5 whole entry, looked up): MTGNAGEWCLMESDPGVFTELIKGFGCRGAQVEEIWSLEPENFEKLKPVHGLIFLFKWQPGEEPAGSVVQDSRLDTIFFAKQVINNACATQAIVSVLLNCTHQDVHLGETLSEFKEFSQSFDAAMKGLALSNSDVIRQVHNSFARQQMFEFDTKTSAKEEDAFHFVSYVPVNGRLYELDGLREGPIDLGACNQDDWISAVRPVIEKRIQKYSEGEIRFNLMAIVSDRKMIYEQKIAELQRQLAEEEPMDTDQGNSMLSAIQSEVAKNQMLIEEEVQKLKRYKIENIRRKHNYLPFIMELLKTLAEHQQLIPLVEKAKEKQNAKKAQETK
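Material: Human UCH37 enzyme supplied as purified proteasome complex | Schedule: 30 min preincubation with enzyme, 25 min cleavage at room temperature | Detection: AMC fluorescence 355/460 nm | Measure: % inhibition of Ub-AMC cleavage fluorescence | Controls: Wells without proteasome as full block, compound-free enzyme plus substrate as uninhibited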
FGF22 binding = FGF22 (human) thermal shift binding. Q9HCT0. recombinant FGF22 thermal shift, SYPRO orange fluorescence; percent of sucrose octasulfate shift, DMSO zero. calls only at 9.99 µM. 340,000 compounds, 1.5% hits;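 active = melting point raised past a set limit in the mean and every replicate; three in four hits are not shown here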
Target sequence (Q9HCT0 whole entry, looked up): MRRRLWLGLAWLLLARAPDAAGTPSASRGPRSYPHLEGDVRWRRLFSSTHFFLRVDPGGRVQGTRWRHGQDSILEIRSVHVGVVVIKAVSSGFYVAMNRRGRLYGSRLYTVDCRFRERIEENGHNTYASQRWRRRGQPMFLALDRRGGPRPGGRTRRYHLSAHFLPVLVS
ALR H2O2 inh = inhibitors of human sulfhydryl oxidase ALR. P55789. purified ALR, DTT oxidation, H2O2 HRP-luminol luminescence. inhibition, % (test concentration not listed). 290,000 compounds, 3.8% hits;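 active = mean and each replicate at 75% or more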;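 also: stock transfer was 7.5 nL into about 7.5 µL; 0% = neutral wells and 100% = wells with inactivated enzyme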
Target sequence (P55789 whole entry, looked up): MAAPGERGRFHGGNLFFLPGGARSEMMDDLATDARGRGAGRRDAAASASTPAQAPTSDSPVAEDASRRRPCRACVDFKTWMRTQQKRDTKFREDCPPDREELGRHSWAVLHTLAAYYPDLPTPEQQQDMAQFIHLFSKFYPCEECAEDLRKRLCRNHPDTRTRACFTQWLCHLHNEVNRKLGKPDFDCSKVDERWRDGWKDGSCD
rRNA inh HTS OD600 = also measured in rRNA inh HTS; calls as there; OD600 change, %; measured here: OD600 growth;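 optical density of the mix in the first replicate; 0 = DMSO median and -100 = no signal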
rRNA inh HTS RFP = also measured in rRNA inh HTS; calls as there; RFP signal change, %; measured here: RFP humanized mutant strains;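 first replicate; 0 = DMSO median and -100 = no signal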
* marks the source's active call; other numbers are inactive results; i = inactive; . = no result given.

The opening eight compounds (preview)
HNF4A DNA FP,Ecoli growth,UCH37 inh,rRNA inh HTS RFP,B2AR ag,FGF22 binding,rRNA inh HTS OD600,ALR H2O2 inh,rRNA inh HTS,canonical_smiles
-5.3,0.694,0.6,-3.3,0.9,.,0.1,.,-4.1,COc1ccc(CNC(=O)C2CCN(S(=O)(=O)c3cccc(C(F)(F)F)c3)CC2)cc1
-1.8,0.633,-0.7,.,6.1,.,.,-9.4,.,O=S(=O)(Nc1ncn[nH]1)c1ccc(Cl)cc1
-0.2,0.67,2.5,0.3,0.9,i,12.9,-4.0,2.1,Cc1cccc(NC(=O)CNC(=O)N2CC(=O)Nc3ccccc32)c1C
-1.7,0.693,2.4,.,1.0,.,.,-3.4,.,CC(NC(=O)c1ccc(-c2cc(C(F)(F)F)ccc2Cl)o1)c1ccccc1 (configuration not stated)
0.4,0.718,0.1,-2.1,-1.3,i,-9.7,-2.6,-16.1,COc1ccc(CCNC(=O)COc2ccc(S(=O)(=O)NCC(C)C)cc2Cl)cc1OC
8.4,0.682,4.8,.,-1.4,i,.,.,.,CCCn1c(SCC(=O)N(C2CCCCC2)C2CCS(=O)(=O)C2)n[nH]c1=O (configuration not stated)
-0.6,0.633,0.9,7.9,6.0,i,9.7,68.8,8.0,Cc1ccc(Nc2nc(C)cs2)cc1
3.6,0.727,3.9,.,6.1,.,.,.,.,COc1ccc(NC(=O)C(=O)NCCN2CCN(C(=O)C(c3ccccc3)c3ccccc3)CC2)cc1

The list itself (from the top)
HNF4A DNA FP,Ecoli growth,UCH37 inh,rRNA inh HTS RFP,B2AR ag,FGF22 binding,rRNA inh HTS OD600,ALR H2O2 inh,rRNA inh HTS,canonical_smiles
-5.3,0.694,0.6,-3.3,0.9,.,0.1,.,-4.1,COc1ccc(CNC(=O)C2CCN(S(=O)(=O)c3cccc(C(F)(F)F)c3)CC2)cc1
-1.8,0.633,-0.7,.,6.1,.,.,-9.4,.,O=S(=O)(Nc1ncn[nH]1)c1ccc(Cl)cc1
-0.2,0.67,2.5,0.3,0.9,i,12.9,-4.0,2.1,Cc1cccc(NC(=O)CNC(=O)N2CC(=O)Nc3ccccc32)c1C
-1.7,0.693,2.4,.,1.0,.,.,-3.4,.,CC(NC(=O)c1ccc(-c2cc(C(F)(F)F)ccc2Cl)o1)c1ccccc1 (configuration not stated)
0.4,0.718,0.1,-2.1,-1.3,i,-9.7,-2.6,-16.1,COc1ccc(CCNC(=O)COc2ccc(S(=O)(=O)NCC(C)C)cc2Cl)cc1OC
8.4,0.682,4.8,.,-1.4,i,.,.,.,CCCn1c(SCC(=O)N(C2CCCCC2)C2CCS(=O)(=O)C2)n[nH]c1=O (configuration not stated)
-0.6,0.633,0.9,7.9,6.0,i,9.7,68.8,8.0,Cc1ccc(Nc2nc(C)cs2)cc1
3.6,0.727,3.9,.,6.1,.,.,.,.,COc1ccc(NC(=O)C(=O)NCCN2CCN(C(=O)C(c3ccccc3)c3ccccc3)CC2)cc1
-2.1,0.688,1.5,-2.7,0.2,i,0.4,.,7.2,COc1cccc(CNC(=O)C(=O)NCCC2CCCCN2S(=O)(=O)c2cccs2)c1 (configuration not stated)
-2.2,.,.,.,-1.3,.,.,1.4,.,O=C(Cc1ccccc1)N/N=C/c1ccc(OCC(=O)Nc2ccccc2)cc1
-4.1,0.658,4.4,-0.9,-13.8,i,1.7,-6.8,4.7,O=[N+]([O-])c1cc(C(F)(F)F)cc([N+](=O)[O-])c1N1CCCNCC1
3.3,0.739,1.4,0.3,-3.1,i,-5.4,-26.6,1.6,COc1ccc(NC(=O)C2CCCN(S(=O)(=O)c3cccc4cccnc34)C2)cc1 (configuration not stated)
0.0,.,.,17.8,-12.1,i,4.6,-10.4,3.2,O=C(Nc1ccc(Cl)c(Cl)c1)Nc1ccc([N+](=O)[O-])cn1
-1.0,0.669,3.0,.,-3.5,.,.,-2.8,.,COc1cccc(C(=O)O/N=C(\N)c2ccncc2)c1OC
2.2,0.678,0.4,-6.6,-1.0,i,-34.5,.,-17.1,CCC(CC)C(=O)Oc1c(C(=O)N(C)C)cccc1-c1ccccc1
0.2,0.705,-0.6,-5.1,14.9,i,17.6,7.7,8.6,C=CCNC(=S)NNC(=O)CCC(O)COCCC(C)C (configuration not stated)
2.5,.,.,-5.7,.,i,-21.5,.,-19.1,CC(C)c1ccc(CC(=O)N2CCC2(C)C(=O)NCC(C)(C)C)cc1 (configuration not stated)
2.3,0.777,1.8,.,6.2,.,.,-13.6,.,COCCn1c(SCC(=O)NC(=O)NC(C)C)nc2ccccc21
-3.7,0.656,0.0,2.4,-3.8,i,-4.9,3.6,0.0,COc1ccccc1NS(=O)(=O)c1cc(C(=O)NCC(c2cccs2)N2CCOCC2)ccc1C (configuration not stated)
0.6,0.691,4.1,5.5,11.6,i,-21.6,-21.3,-18.1,COc1cccc2c1OCC([C@@H]1C[C@H]3CN(Cc4cccc(Cl)c4)C(=O)[C@]34CCCN14)=C2
-0.3,0.706,1.1,0.7,-1.0,i,9.8,-7.0,4.4,COc1ccc(NC(=O)C2CCN(S(=O)(=O)c3cccc4nonc34)CC2)cc1
-0.1,0.655,1.2,2.0,8.9,i,4.0,-3.9,17.1,Cc1cc(=O)oc(C)c1C(=O)Nc1ccc(F)cc1
2.8,0.611,0.4,-1.3,1.7,i,2.4,-29.0,1.3,Cc1c(NC(=O)c2ccc(S(=O)(=O)N3CCOCC3)cc2)cccc1[N+](=O)[O-]
-0.7,0.664,6.6,0.6,4.7,.,1.3,0.1,8.5,COc1ccc2c(c1)OC(O)(C(F)F)CC2=O (configuration not stated)
-0.4,0.696,-3.3,-8.2,-0.4,i,-1.1,-13.6,4.4,O=C(Cn1cnc2cc([N+](=O)[O-])ccc2c1=O)Nc1cccc(S(=O)(=O)N2CCOCC2)c1
-1.4,0.707,2.6,-2.4,5.4,i,-1.0,.,-5.5,S=C(NCc1ccccc1)N1CCn2cccc2C1c1ccncc1 (configuration not stated)
54.9*,0.746,-29.8,.,1.9,.,.,-7.6,.,C=CCNc1sc(C(=O)c2ccc(Br)s2)c(N)c1C#N
0.7,0.689,-78.5,0.7,-1.4,i,10.0,0.9,5.4,CN(C)S(=O)(=O)c1ccc(C(=O)Nc2nnc(SCc3ccccc3)s2)cc1
0.6,0.711,1.4,-2.0,3.0,i,9.9,4.6,10.9,O=C(CN1CCCC1=O)NC1CCCc2c1cnn2-c1cc(F)cc(F)c1 (configuration not stated)
5.2,0.684,4.0,5.5,-3.7,i,-25.0,4.8,-10.5,CCn1c(=N)n(CC(=O)c2ccc(Br)s2)c2ccccc21
-0.9,0.68,4.5,.,-1.3,.,.,-5.1,.,Cc1nc2ccccc2cc1OCc1ccc(F)cc1
-7.1,.,3.7,-3.2,-1.2,i,4.1,-3.5,1.4,CC(C)(C)OC(=O)C[C@@H]1C/C=C\C[C@H](CC(=O)N[C@H](CO)Cc2ccccc2)C(=O)N[C@@H](Cc2c[nH]c3ccccc23)COC1=O
1.0,0.674,1.6,-4.0,-2.9,i,6.8,-3.6,11.6,O=C(NCc1ccc2c(c1)OCO2)C(C(=O)c1ccccc1)n1cc(Cl)ccc1=O (configuration not stated)
3.6,0.677,2.9,3.2,4.4,i,2.9,8.3,10.6,NC(=O)C1CCN(C(=O)c2ccccc2CCc2ccccc2)CC1
-0.4,0.663,1.0,-8.4,1.8,.,-19.8,-2.4,-11.1,COc1ccc(Br)cc1C(=O)Nc1ccc(C(=O)O)cc1
-3.7,0.663,4.7,-2.4,-0.4,.,12.8,-2.5,18.6,O=C(c1ccc([N+](=O)[O-])cc1)N1CCC(n2nnc3cc(F)ccc32)CC1
27.1,0.646,4.6,-4.9,4.0,i,-0.9,-19.0,-22.2,CCN1C(=O)CSC1=NC12CC3CC(CC(C3)C1)C2
-2.8,.,.,2.3,-4.7,i,8.8,-5.1,10.0,O=C(N/N=C/c1ccco1)c1[nH]ncc1Br
-1.8,0.745,3.5,-0.7,3.3,i,-4.8,-8.6,-0.4,Cc1ccc(S(=O)(=O)C2(C(=O)Nc3cccc(F)c3)CC2)cc1
-2.1,0.781,-1.5,.,7.7,.,.,.,.,Cc1cc(C)cc(OC(=O)N2CCOCC2)c1
0.5,.,3.4,2.5,-1.5,i,8.5,-5.9,10.3,C[C@H](NC(=O)OCc1ccccc1)c1nnc([C@H](C)NC(=O)OCc2ccccc2)o1
0.4,0.672,0.2,-0.8,7.5,i,5.1,-10.3,5.8,Cc1ccc(S(=O)(=O)N2CCOCC2)cc1C(=O)NCC1CCCO1 (configuration not stated)
4.3,0.705,2.0,-0.9,-4.9,i,-10.7,-4.2,-8.1,Cc1cccc(Cn2c(C)nc3ccc([N+](=O)[O-])cc3c2=O)c1
-0.1,0.712,1.7,-1.4,-5.0,i,-6.4,-2.3,14.0,O=C1Nc2ccc(Cl)cc2C12OCCCO2
-0.5,0.753,2.2,.,0.3,.,.,-2.1,.,CCOc1ccc(NS(=O)(=O)c2ccc(NC(=S)NC(=O)C(C)C)cc2)cc1
-1.4,.,3.3,-3.8,1.6,i,-5.7,-0.7,2.3,C[C@H](NC(=O)c1nc[nH]c1C(=O)N1CCN(C(=O)OC(C)(C)C)CC1)C(=O)OC(C)(C)C
-3.2,0.627,1.3,-13.1,-5.4,i,-75.1,2.6,-51.7,S=C(NCc1ccccc1)Nc1ccc(Oc2ccccc2)cc1
3.2,0.665,2.2,3.1,4.0,i,-1.3,-0.9,-1.6,CN(CC(=O)Nc1ccccc1Cl)C(=O)COc1cccc2c1OC(C)(C)C2
0.5,0.71,-2.8,.,20.8,.,.,-6.3,.,COC(=O)c1cn[nH]c1NC(=S)Nc1ccc(Cl)c(Cl)c1
10.1,0.723,1.8,0.9,-1.8,i,3.5,.,-2.5,Cc1ccc(Cl)cc1NC(=O)COC(=O)CCN1C(=O)C2CC=CCC2C1=O (configuration not stated)

(more compounds)
HNF4A DNA FP,Ecoli growth,UCH37 inh,rRNA inh HTS RFP,B2AR ag,FGF22 binding,rRNA inh HTS OD600,ALR H2O2 inh,rRNA inh HTS,canonical_smiles
-0.4,.,.,.,7.6,.,.,-4.4,.,C/C(=N/O)c1cc(C(C)(C)C)c(O)c(C(C)(C)C)c1
1.0,0.691,1.4,-2.9,-7.0,i,13.4,-4.9,5.1,CN1CCN(C(=O)c2ccccc2NS(=O)(=O)c2ccc(F)cc2)CC1
1.1,0.647,3.6,0.1,-3.9,i,10.8,.,7.2,Cc1ccc(NC(=O)Cn2nnc(-c3ccc4c(c3)OCO4)n2)cc1F
-4.2,0.752,1.0,.,12.2,.,.,-5.5,.,COC(=O)c1ccccc1NC(NC(=O)c1ccco1)C(=O)c1ccc(C)cc1 (configuration not stated)
-1.6,.,3.4,.,-4.5,i,.,-0.6,.,C[C@H]1C[C@H]2[C@@H]3CCC4=CC(=O)C=C[C@]4(C)[C@@]3(Cl)[C@@H](O)C[C@]2(C)[C@@]1(O)C(=O)CO
6.0,0.65,-2.6,-1.3,7.7,i,11.6,-5.8,3.1,C=CCC(NCc1ccccc1)c1ccco1 (configuration not stated)
1.4,0.692,0.2,.,-3.0,.,.,-13.1,.,CN(CC(=O)Nc1ccccn1)S(=O)(=O)c1ccc(Cl)cc1
-1.9,0.731,1.6,.,4.5,.,.,-2.9,.,CCS(=O)(=O)n1nc(-c2ccc(C)cc2)nc1N
-1.0,0.699,4.0,0.8,0.5,i,-5.8,.,1.2,CC1SC(c2ccccc2)N(CC(O)c2ccc([N+](=O)[O-])cc2)C1=O (configuration not stated)
2.0,0.655,2.2,.,0.1,i,.,-5.6,.,O=S(=O)(Nc1cccc(-c2nnco2)c1)c1ccc(F)cc1F

This is a subset. The share of hits here may be higher or lower than overall.
